# Screens from PubChem.
# NOMO-1 viab: STK33 inhibitor candidate reducing NOMO-1 cell viability. NOMO-1 AML viability, CellTiter-Glo luminescence, 72 h. inhibition, % (test concentration not listed). 7.5% of 37,000 active. AID 2330;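 active means most replicates above 80%; inconclusive means exactly half above 80%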;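 further: wells of about 30 µL received 25 nL stock; 0% = median of vehicle wells and 100% = reference inhibitor level; the first replicate is given; inactives centre near 10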
# * marks the source's active call; other numbers are inactive results; ? = inconclusive. A portion of the library; rates above refer to the full screens.
smiles | NOMO-1 viab
COc1ccc(S(=O)(=O)N(C)C[C@H]2Oc3ccc(NS(=O)(=O)c4ccc(F)cc4)cc3CC(=O)N([C@@H](C)CO)C[C@H]2C)cc1 | -3.7
CC(C)NC(=O)N(C)C[C@@H]1Oc2ccc(NC(=O)c3ccncc3)cc2C(=O)N([C@@H](C)CO)C[C@H]1C | 13.2
CC(C)NC(=O)N(C)C[C@H]1Oc2ccc(NC(=O)Nc3ccc(C(F)(F)F)cc3)cc2C(=O)N([C@@H](C)CO)C[C@@H]1C | -0.5
C[C@H]1CN([C@@H](C)CO)C(=O)c2cc(NC(=O)Nc3ccccc3)ccc2O[C@H]1CN(C)CC1CCCCC1 | 10.9
COc1ccc(NC(=O)N(C)C[C@@H]2Oc3c(NC(=O)C4CCOCC4)cccc3C(=O)N([C@@H](C)CO)C[C@@H]2C)cc1 | 20.1
CSc1ccccc1NC(=O)CSc1nccn1C | 35.9
CC(NS(=O)(=O)c1ccccc1)C(=O)Nc1ccc2c(c1)OCCO2 (stereo unspecified) | 5.0
C[C@@H]1CN([C@H](C)CO)C(=O)c2cccc(N(C)C)c2O[C@@H]1CN(C)Cc1ccc(Cl)c(Cl)c1 | 18.9
C[C@H]1CN([C@@H](C)CO)C(=O)Cc2cc(NC(=O)Nc3ccc(F)cc3)ccc2O[C@@H]1CN(C)Cc1ccc(Oc2ccccc2)cc1 | 107.0*
Cc1cccc(NC(=O)CSc2nnc(-c3cccs3)n2-c2ccccc2)c1 | 15.7
Cc1ccc(S(=O)(=O)NC(C)(C)C(=O)Oc2cc(C)c3c(c2)oc(=O)c2ccccc23)cc1 | 9.6
Cc1noc(C)c1S(=O)(=O)Nc1cccc2c1O[C@H](CN(C)Cc1ccc(C(F)(F)F)cc1)[C@H](C)CN([C@H](C)CO)C2=O | 14.0
C[C@@H]1CN([C@H](C)CO)C(=O)c2cccc(NS(=O)(=O)c3ccc(Cl)cc3)c2O[C@@H]1CN(C)S(C)(=O)=O | 8.3
COc1ccc(S(=O)(=O)Nc2ccc3c(c2)CC(=O)N([C@@H](C)CO)C[C@H](C)[C@H](CN(C)CC2CCCCC2)O3)cc1 | 43.9
COc1ccc(C)cc1NC(=O)CNS(=O)(=O)c1ccccc1 | 33.0
Cc1ccc(N(C(C)C(=O)Nc2ccccc2C(=O)N2CCCC2)S(C)(=O)=O)cc1 (stereo unspecified) | 40.8
C[C@@H]1CN([C@H](C)CO)C(=O)c2cc(NC(=O)C3CCCCC3)ccc2O[C@@H]1CN(C)Cc1ccc(C(F)(F)F)cc1 | 32.3
C[C@H](CO)N1C[C@H](C)[C@H](CN(C)Cc2ccc(C(F)(F)F)cc2)Oc2ccc(NS(=O)(=O)c3ccc(F)cc3)cc2C1=O | 0.7
Cc1ccc(S(=O)(=O)N(C)C[C@@H]2Oc3ccc(NC(=O)CCCN(C)C)cc3C(=O)N([C@@H](C)CO)C[C@@H]2C)cc1 | -4.7
Cc1ccc(-c2nc3cccnc3o2)cc1NC(=O)COc1ccc(C(C)(C)C)cc1 | 62.5
Cc1noc(C)c1NC(=O)Nc1ccc2c(c1)C(=O)N([C@H](C)CO)C[C@H](C)[C@@H](CN(C)S(=O)(=O)c1ccc(Cl)cc1)O2 | 24.1
Cc1nn(CC(=O)Nc2ccc(F)cc2)c(C)c1[N+](=O)[O-] | -1.5
N#Cc1c(SCc2ccccc2Cl)nc2c(c1C(F)(F)F)CCc1occc1-2 | ?
Cc1c(Cl)cccc1N(CC(=O)Nc1cc(Cl)cc(Cl)c1)S(C)(=O)=O | 22.1
C[C@@H]1CN([C@@H](C)CO)C(=O)c2cc(NS(=O)(=O)c3ccc(F)cc3)ccc2O[C@@H]1CN(C)Cc1ccc(C(=O)O)cc1 | 7.5
CC(C)NC(=O)N(C)C[C@H]1Oc2ccc(NC(=O)C3CC3)cc2CC(=O)N([C@@H](C)CO)C[C@H]1C | -4.4
C[C@@H]1CN([C@H](C)CO)C(=O)Cc2cc(NC(=O)C3CC3)ccc2O[C@@H]1CN(C)Cc1ccc(C(=O)Nc2ccccc2N)cc1 | 64.9
C[C@@H]1CN([C@H](C)CO)C(=O)c2cccc(NS(=O)(=O)c3ccc(Cl)cc3)c2O[C@@H]1CN(C)Cc1ccc2c(c1)OCO2 | 2.1
C[C@H](CO)N1C[C@H](C)[C@@H](CN(C)S(=O)(=O)c2ccc(Cl)cc2)Oc2ccc(NC(=O)C3CC3)cc2C1=O | 30.7
C[C@H](CO)N1C[C@H](C)[C@H](CN(C)Cc2ccccc2)Oc2ccc(NC(=O)Cc3ccccc3)cc2C1=O | 7.7
C[C@@H]1CCCCO[C@@H](CN(C)C(=O)Nc2ccc3c(c2)OCO3)[C@@H](C)CN([C@H](C)CO)C(=O)c2cc(NC(=O)Cc3ccccc3)ccc2O1 | 9.4
Cc1ccc(S(=O)(=O)N(C)C[C@@H]2Oc3c(NC(=O)c4nc5ccccc5s4)cccc3C(=O)N([C@H](C)CO)C[C@@H]2C)cc1 | 52.1
Cc1ccc(S(=O)(=O)N(C)C[C@H]2Oc3ccc(NC(=O)Nc4ccc(F)cc4)cc3C(=O)N([C@@H](C)CO)C[C@@H]2C)cc1 | 33.2
NC(=S)c1ccc(N2CCC(C(F)(F)F)CC2)nc1 | 20.3
C[C@H]1CN([C@@H](C)CO)C(=O)Cc2cc(NC(=O)C3CCCCC3)ccc2O[C@@H]1CN(C)C(=O)Nc1ccc(F)cc1 | 18.0
C[C@@H]1CN([C@@H](C)CO)C(=O)c2cccc(NC(=O)c3ccncc3)c2O[C@H]1CN(C)Cc1ccccc1 | 27.5
Cc1noc(C)c1NC(=O)N(C)C[C@@H]1OCCCC[C@@H](C)Oc2ccc(NC(=O)NC(C)C)cc2C(=O)N([C@H](C)CO)C[C@@H]1C | 0.2
C[C@H](CO)N1C[C@H](C)[C@@H](CN(C)S(=O)(=O)c2ccc(F)cc2)Oc2ccc(NC(=O)NC3CCCCC3)cc2C1=O | -7.7
N#CCC(=O)N=Cc1ccc(Cl)cc1Cl | 5.7
C[C@H](CO)N1C[C@H](C)[C@H](CN(C)C(=O)NC2CCCCC2)Oc2ccc(NC(=O)C3CC3)cc2C1=O | 19.0
OC(CNCc1ccco1)c1ccccc1 (stereo unspecified) | 17.4
COc1ccc2oc(-c3ccccc3)c(O)c(=O)c2c1 | 21.3
Cc1ccc(S(=O)(=O)Nc2ccccc2CNc2cnc3ccccc3c2)cc1 | 59.9
Cc1cc(C(=O)Nc2cccc3c2O[C@@H](CN(C)S(=O)(=O)c2cccs2)[C@H](C)CN([C@@H](C)CO)C3=O)n(C)n1 | -13.6
O=[N+]([O-])c1ccc(NCCNS(=O)(=O)c2ccc(Br)cc2)c(C(F)(F)F)c1 | 17.5
CCOC(=O)c1c(NC(=O)CSc2ncccn2)sc2c1CCCC2 | 28.8
COc1ccc(OC)c(C(=O)CSc2nnc(-c3ccco3)n2C)c1 | 2.1
CN(CC(=O)Nc1cccc2c1CCCC2)S(=O)(=O)c1ccc(Cl)cc1 | 18.3
Cn1c(SCCSc2nnc(-c3ccccc3)n2C)nnc1-c1ccccc1 | 23.3
C[C@@H]1CN([C@H](C)CO)C(=O)c2cccc(NC(=O)Nc3ccc(F)cc3)c2O[C@@H]1CN(C)S(=O)(=O)c1ccc(F)cc1 | 27.8
C[C@@H]1CN([C@@H](C)CO)C(=O)c2cccc(NC(=O)C3CCCCC3)c2O[C@@H]1CN(C)CC1CCCCC1 | 9.3
CNC[C@@H]1Oc2ccc(NC(=O)NC(C)C)cc2C(=O)N([C@@H](C)CO)C[C@@H]1C | 2.6
CC(C)NC(=O)N(C)C[C@@H]1Oc2c(NC(=O)c3ccncc3)cccc2C(=O)N([C@H](C)CO)C[C@@H]1C | 33.9
CCn1c(NCc2cccc(OC)c2OC)nc2ccccc21 | 30.8
Cc1ccc(-c2nnn(CC(=O)Nc3ccc4c(c3)OCCO4)n2)cc1 | 6.6
COc1cc(C)c(Cl)cc1S(=O)(=O)NCc1ccco1 | -11.4
CC1(C)C(=O)C=C[C@@]2(C)C1C=C[C@]1(C)C2CC[C@@]2(C)[C@H](c3ccoc3)OC(=O)C3OC321 (stereo partly specified) | 106.7*
Cc1cc2ccccc2n2c(SCC(=O)Nc3cccc(C(F)(F)F)c3)nnc12 | -3.5
c1ccc(CSC23CC4CC(CC(C4)C2)C3)cc1 | 56.7
Cc1cc(Br)c2c(c1)C(O)(CC(=O)c1ccco1)C(=O)N2C (stereo unspecified) | 121.9*

# Next results:
smiles | NOMO-1 viab
C[C@@H]1CCCCO[C@@H](CN(C)Cc2ccc3c(c2)OCO3)[C@@H](C)CN([C@H](C)CO)C(=O)c2cc(NS(=O)(=O)c3ccc(F)cc3)ccc2O1 | 32.3
COc1ccc(-c2nnc(SCC(N)=O)n2-c2cccc(C(F)(F)F)c2)cc1OC | -7.4
C[C@H](CO)N1C[C@H](C)[C@@H](CN(C)Cc2ccc(Cl)c(Cl)c2)Oc2c(cccc2N(C)C)C1=O | 60.9
CCOC(=O)c1c(NC(=O)CN2C(=O)c3ccccc3C2=O)sc(C)c1C | -25.7
Nc1nc(SCC(=O)NC2CCCCC2)n[nH]1 | 24.4
COc1ccc(C(=O)Nc2ccc(S(=O)(=O)Nc3nccnc3OC)cc2)cc1 | -14.7
COc1ccc(CN(C)C[C@H]2Oc3ccc(NC(=O)CCC(F)(F)F)cc3C(=O)N([C@H](C)CO)C[C@@H]2C)cc1 | 8.1
C[C@H]1CN([C@@H](C)CO)C(=O)c2cc(NS(=O)(=O)c3ccc(Cl)cc3)ccc2O[C@@H]1CN(C)Cc1ccc(Oc2ccccc2)cc1 | 58.1
CNC[C@@H]1Oc2ccc(N(C)C)cc2C(=O)N([C@@H](C)CO)C[C@H]1C | -16.2
C[C@H]1CN([C@@H](C)CO)C(=O)c2cccc(NC(=O)c3ccc(-c4nccs4)cc3)c2O[C@@H]1CN(C)S(=O)(=O)c1cn(C)cn1 | 6.6
CC(C)NC(=O)N(C)C[C@@H]1OCCCC[C@@H](C)Oc2ccc(NC(=O)NC3CCCCC3)cc2C(=O)N([C@H](C)CO)C[C@@H]1C | 1.0
CNC[C@H]1Oc2c(NC(=O)NC(C)C)cccc2C(=O)N([C@H](C)CO)C[C@H]1C | -4.0
COc1cccc(-n2nnnc2SCC(=O)Nc2c(C)cc(C)cc2C)c1 | -13.4
COc1ccc(S(=O)(=O)N(C)C[C@@H]2Oc3ccc(NC(=O)C4CCCCC4)cc3C(=O)N([C@@H](C)CO)C[C@@H]2C)cc1 | 17.0
COc1ccc(NC(=O)N(C)C[C@H]2Oc3ccc(NC(=O)c4ccncc4)cc3C(=O)N([C@H](C)CO)C[C@H]2C)cc1 | 10.4
CC(=O)Nc1ccc(OCC(O)Cn2nc(C)c(C(C)=O)c2C)cc1 (stereo unspecified) | 10.7
CNC[C@H]1Oc2ccc(NC(=O)CCN3CCOCC3)cc2CC(=O)N([C@H](C)CO)C[C@H]1C | 16.4
C[C@H](CO)N1C[C@H](C)[C@H](CN(C)C(=O)Nc2ccc(F)cc2)Oc2c(NS(=O)(=O)c3cn(C)cn3)cccc2C1=O | -5.3
C[C@@H]1CN([C@H](C)CO)C(=O)c2cccc(NC(=O)Nc3ccc4c(c3)OCO4)c2O[C@H]1CN(C)S(=O)(=O)c1ccccc1 | 26.5
Nc1nnc(SCC(=O)N2CCc3ccccc32)n1-c1ccccc1 | 21.0
CCOC(=O)c1c(C(C)(C)C)oc2ccc(OCC(=O)OC)cc12 | 28.2
C[C@H]1CN([C@@H](C)CO)C(=O)Cc2cc(NC(=O)Nc3ccccc3)ccc2O[C@@H]1CN(C)C(=O)NC1CCCCC1 | 4.0
Cc1noc(C)c1NC(=O)Nc1ccc2c(c1)CC(=O)N([C@H](C)CO)C[C@@H](C)[C@H](CN(C)Cc1ccccc1)O2 | 15.8
C[C@H]1CN([C@@H](C)CO)C(=O)Cc2cc(NC(=O)Nc3cccc4ccccc34)ccc2O[C@H]1CN(C)C(=O)NC1CCCCC1 | 23.8
C[C@H]1CN([C@@H](C)CO)C(=O)c2cc(NS(=O)(=O)c3cn(C)cn3)ccc2O[C@H]1CN(C)S(C)(=O)=O | -15.4
CC(C)NC(=O)Nc1ccc2c(c1)C(=O)N([C@H](C)CO)C[C@@H](C)[C@@H](CN(C)C(=O)Nc1ccc3c(c1)OCO3)O2 | -3.4
C[C@@H]1CN([C@H](C)CO)C(=O)c2cc(NC(=O)Cc3cn(C)c4ccccc34)ccc2O[C@@H]1CN(C)C(=O)Nc1ccc(C(F)(F)F)cc1 | 64.9
C[C@H]1CN([C@@H](C)CO)C(=O)Cc2cc(NC(=O)Cc3cn(C)c4ccccc34)ccc2O[C@H]1CN(C)S(=O)(=O)c1cn(C)cn1 | 22.4
C[C@@H]1CN([C@H](C)CO)C(=O)Cc2cc(NC(=O)Nc3cccc4ccccc34)ccc2O[C@@H]1CN(C)C(=O)NC1CCCCC1 | 30.2
CCOc1ccccc1NC(=O)CSc1c(C)n[nH]c1C | -4.0
COc1ccc2c(c1)[C@@]1(C)CCC(=O)C[C@H]1CC2 | -4.4
C[C@@H]1CCCCO[C@H](CN(C)C(=O)C2CCCCC2)[C@@H](C)CN([C@H](C)CO)C(=O)c2cc(NC(=O)Cc3ccccc3)ccc2O1 | 38.9
COc1ccc(S(=O)(=O)N(C)C[C@@H]2Oc3ccc(N(C)C)cc3CC(=O)N([C@H](C)CO)C[C@H]2C)cc1 | 13.3

# An excerpt of these results, as labelled records.
CCOc1ccccc1NC(=O)CSc1c(C)n[nH]c1C
  NOMO-1 viab = -4.0
CC(C)NC(=O)Nc1ccc2c(c1)C(=O)N([C@H](C)CO)C[C@@H](C)[C@@H](CN(C)C(=O)Nc1ccc3c(c1)OCO3)O2
  NOMO-1 viab = -3.4
COc1ccc2c(c1)[C@@]1(C)CCC(=O)C[C@H]1CC2
  NOMO-1 viab = -4.4
C[C@H]1CN([C@@H](C)CO)C(=O)Cc2cc(NC(=O)Cc3cn(C)c4ccccc34)ccc2O[C@H]1CN(C)S(=O)(=O)c1cn(C)cn1
  NOMO-1 viab = 22.4
